# miR-21 FLuc – miR-21 reporter, rising signal | HeLa miR-21 FLuc reporter, luciferase, 48 h | Potency, µM (highest dose often 38.3 µM), without a hit: top-dose reporter change, positive = more light | 340,000 tested, under 10 active | AID 2288; active = well fitted rising curve with a large enough effect; inconclusive = small, poorly fitted or top-dose-only effect; inactive = no such curve, though single readings can be large or run the other way;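 further: % of control where 0% means no effect; miR-21 action dims this reporter so a rising signal means less miR-21 action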
#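 HeLa cells stably expressing CMV-driven firefly luciferase with a downstream miR-21 binding sequence, endogenously expressing miR-21, were treated with titrations (up to about 40uM final) for 48 hours at 37 degree Celsius. Luciferase luminescence was read after lysis.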
# The depositor's hits bear a star; ? = inconclusive. These rows are one share of the data (hit frequency here may not be typical).
miR-21 FLuc | smiles
-55% | CCc1cccc(-n2nnc(-c3nsc(NC(=O)c4cccs4)n3)c2C)c1
18% | Cc1cc2c(cc1C)-n1c(-c3ccccc3)c3c(=O)n(C)c(=O)n(C)c3c1C(c1ccco1)N2 (centres undefined)
-16% | COc1ccccc1-c1cc(C(=O)Nc2ccccc2C(F)(F)F)no1
13% | Cc1ccc(-c2onc(C)c2C)cc1S(=O)(=O)N1CCC(C)CC1
15% | Cn1cc(-c2cc3n(n2)CCC(=O)N3CCCC(=O)NCc2ccccc2)c2ccccc21
-55% | CCN(CC)S(=O)(=O)c1nnc(NC(=O)COc2ccccc2F)s1
-7% | COc1ccc(N2CCN(C3=NS(=O)(=O)C(c4cccc(Br)c4)=C3C)CC2)cc1
12% | Cc1ccc(NC(=O)CCc2c(C)nc3c(-c4ccccc4)c(C)nn3c2C)c(C)c1
-1% | Cc1cc(C(F)F)n2nc(C(=O)Nc3c(C)cccc3C)nc2n1
-7% | O=C(Nc1sc2c(c1C(=O)NCC1CCCO1)CCC2)c1cc(=O)c2ccccc2o1 (centres undefined)
-1% | CCc1ccc(NC(=O)Cn2c(=O)n(Cc3nc(-c4ccccc4)no3)c(=O)c3cc4c(cc32)OCO4)cc1
28% | C[C@H](NC(=O)OC(C)(C)C)c1nnc(SCc2c(F)cccc2Cl)o1
-10% | O=C(Cn1ccn(-c2ccc(F)c(F)c2)c(=O)c1=O)Nc1ccccc1F
-9% | COc1ccc(C2C(C(=O)Nc3cccnc3)=C(C)Nc3nc(-c4ccc(OC)c(OC)c4)nn32)cc1 (centres undefined)
1% | O=C(Cn1c(=O)n(Cc2ccco2)c(=O)c2sc3ccccc3c21)Nc1ccc(F)cc1F
-11% | COC(=O)c1ccc([C@@H]2Nc3c(cccc3C(F)(F)F)[C@@H]3C=CC[C@@H]32)cc1
3% | Cc1cc(C)n(-c2nc3ccccc3nc2N2CCN(c3cccc(C(F)(F)F)c3)CC2)n1
-2% | Cc1cccc2nc(Cn3c(=O)n(-c4ccccc4)c(=O)c4c5c(sc43)CCC5)cc(=O)n12
-1% | Cc1ccc(-c2nnc(Nc3cccc(Cl)c3)c3ccccc23)cc1S(=O)(=O)N1CCN(C)CC1
-1% | COc1ccc(-c2cn3c(n2)sc2cc(C(=O)NCCc4ccc(OC)cc4OC)ccc23)cc1

# Reprinted from the part before: two entries; new compounds follow.
miR-21 FLuc | smiles
-1% | Cc1ccc(-c2nnc(Nc3cccc(Cl)c3)c3ccccc23)cc1S(=O)(=O)N1CCN(C)CC1
-1% | COc1ccc(-c2cn3c(n2)sc2cc(C(=O)NCCc4ccc(OC)cc4OC)ccc23)cc1
-1% | O=C(Nc1onc2c1CCCC2)c1ccc(Cl)cc1
11% | COc1cc(C(=O)Nc2c(C(=O)Nc3ccccc3F)oc3ccccc23)cc(OC)c1OC
0% | O=C(Nc1ccc(S(=O)(=O)N2CCC(c3nc4ccccc4s3)CC2)cc1)c1ccccc1F
0% | CCn1cc(S(=O)(=O)c2cccc(C)c2)c(=O)c2cc(F)c(N3CCCC(C)C3)cc21 (centres undefined)
-2% | Cc1ccc(C)c(NC(=O)CSc2ncc(S(=O)(=O)c3ccc(C)c(Cl)c3)c(=O)[nH]2)c1
9% | Cc1cc(NC(=O)Cn2nc(C)n3cccc3c2=O)ccc1Br
0% | O=C(Cn1c(=O)n(-c2ccccc2)c(=O)c2c3c(sc21)CCCC3)Nc1ccc(F)cc1
-14% | COc1ccccc1CNC(=O)CCn1cnc2ccccc2c1=O
0% | COc1ccccc1N1CCN(c2ncc3c(n2)CCN(Cc2ccccc2F)C3)CC1
-1% | O=C(NCCc1ccc(Cl)cc1)C1CCN(c2ncnc3c2nc2n3CCCCC2)CC1
-1% | Cn1nc(-c2ccccc2F)c2cc(C(=O)NCc3ccccc3Cl)sc21
-10% | Cc1ccc(-n2ncc3c(=O)n(Cc4ccccc4C)cnc32)cc1C
-9% | CCN(CC)c1nn2c(=O)c(C(=O)NCc3ccc(OC)cc3OC)cnc2s1
-4% | CCOc1ccc(CCNC(=O)c2cc(=O)[nH]c3ccc(S(=O)(=O)N4CCCCC4)cc23)cc1OCC
6% | CCc1nn2c(=O)c(S(=O)(=O)Nc3ccc(C)cc3C)c(C)nc2s1
1% | CC(=O)N1CCCC1c1nc2ccccc2n1Cc1ccc(F)cc1 (centres undefined)
0% | O=c1c2cnn(-c3ccc(F)cc3)c2ncn1Cc1cccc(Cl)c1
-14% | CCOc1ccccc1NC(=O)c1ccc2c(c1)CCCN2S(C)(=O)=O
24% | Cc1ccc(-n2ncc(C(=O)NCCN3CCC(Cc4ccccc4)CC3)c2C2CCN(C(=O)OC(C)(C)C)CC2)cc1
? | CCOC(=O)c1ccc(NC(=O)Cn2nc(SC)c(S(=O)(=O)c3ccc(Cl)cc3)c2N)cc1

# 3 of the compounds above, with bars between the fields.
SMILES | miR-21 FLuc
Cc1ccc(-c2nnc(Nc3cccc(Cl)c3)c3ccccc23)cc1S(=O)(=O)N1CCN(C)CC1 | -1%
COc1ccc(-c2cn3c(n2)sc2cc(C(=O)NCCc4ccc(OC)cc4OC)ccc23)cc1 | -1%
O=C(Nc1onc2c1CCCC2)c1ccc(Cl)cc1 | -1%

# The list continues:
miR-21 FLuc | smiles
? | Cc1ccc(NC(=O)c2c(NC(=O)C(F)(F)F)sc3c2CCCCC3)cc1
-14% | CC(C)(C)OC(=O)CN1C(=O)S/C(=C\c2ccc(-c3cccc(C(=O)O)c3)o2)C1=O
8% | Cc1ccc(S(=O)(=O)c2nc(-c3ccco3)oc2SC(C)c2ccccc2)cc1 (centres undefined)
4% | Cc1ccc(CN(Cc2ccco2)C(=O)c2oc3c(C)c(C)ccc3c2C)cc1
-4% | CCCN1C(=O)C(O)(CC(=O)c2ccc(OC)c(OC)c2)c2ccccc21 (centres undefined)
-4% | COc1ccc(NC(=O)c2cc(S(=O)(=O)N3CCCC(C)C3)cn2C)c(OC)c1 (centres undefined)
-1% | CCOc1ccc(S(=O)(=O)c2cn(Cc3ccccc3)c3ccc(OCC)cc3c2=O)cc1
4% | O=C(CSc1ncc2c(n1)-c1ccccc1N(Cc1ccc(F)cc1)S2(=O)=O)NCc1ccccc1
19% | COc1ccc(CNc2cc(-c3ccc(OC)cc3)nc3nncn23)cc1
14% | CCN(CC)c1sc(S(=O)(=O)c2ccccc2)nc1S(=O)(=O)c1ccc(C)cc1
12% | Cc1ccc(C(C)NC(=S)NC2CCCCC2)cc1C (centres undefined)
4% | Cc1cccc(CC(=O)NCc2nc3cccnc3n2Cc2ccc(F)cc2)c1
-11% | CC(=O)c1ccc(S(=O)(=O)Nc2ccc(-c3cn4c(C)csc4n3)cc2)cc1
-26% | Cc1c(C(=O)NCc2ccccc2)sc2nc[nH]c(=O)c12
16% | O=C(CN(CCc1ccccc1)S(=O)(=O)c1ccccc1)NCc1ccc(Cl)cc1
-1% | COC(=O)c1cc2sc(Cl)cc2n1Cc1nc(-c2ccccc2F)oc1C
-13% | CCOC(=O)c1cnc2c(C)cccc2c1Nc1ccc(OC(C)C)cc1
-5% | Cc1ccc(C)c(NC(=O)CSc2ccc3nc(-c4ccccc4)cn3n2)c1
12% | COc1ccc(Cn2ccc3nc(C)c(C(=O)Nc4ccc(OC(F)(F)F)cc4)cc3c2=O)cc1
15% | CCC(=O)N1CCc2cc(Br)cc(S(=O)(=O)N3CCC(C(=O)Nc4ccc(OC)cc4)CC3)c21

# Rewritten field by field: entries from further up.
mol: COc1ccc(CNc2cc(-c3ccc(OC)cc3)nc3nncn23)cc1
  miR-21 FLuc: 19%

mol: CCN(CC)c1sc(S(=O)(=O)c2ccccc2)nc1S(=O)(=O)c1ccc(C)cc1
  miR-21 FLuc: 14%

mol: Cc1ccc(C(C)NC(=S)NC2CCCCC2)cc1C (centres undefined)
  miR-21 FLuc: 12%

mol: Cc1cccc(CC(=O)NCc2nc3cccnc3n2Cc2ccc(F)cc2)c1
  miR-21 FLuc: 4%

# 3 entries already listed, sorted by SMILES length, ascending:
miR-21 FLuc | smiles
-26% | Cc1c(C(=O)NCc2ccccc2)sc2nc[nH]c(=O)c12
-4% | CCCN1C(=O)C(O)(CC(=O)c2ccc(OC)c(OC)c2)c2ccccc21 (centres undefined)
16% | O=C(CN(CCc1ccccc1)S(=O)(=O)c1ccccc1)NCc1ccc(Cl)cc1

# Next entries follow.
miR-21 FLuc | smiles
-1% | CC(C)c1ccc(NC(=O)c2cnn3c(C(F)F)cc(-c4ccccc4)nc23)cc1
-2% | COc1ccc(-c2nc3n(n2)C(c2ccc(OC)c(OC)c2)C(C(=O)Nc2cccnc2)=C(C)N3)cc1 (centres undefined)
-9% | COc1ccc(C(=O)Oc2cc(-c3ccc4c(c3)OCO4)cc(=O)c3c(C)oc(C)c23)cc1
-2% | O=C(Cn1c(SCC(=O)Nc2ccc(F)cc2)nc2ccccc21)NCc1ccccc1Cl
0% | CCOc1cccc(C(=O)Nc2cc(-c3ccc(C)cc3)no2)c1
-23% | Cc1ccc2nc(-c3cccc(NC(=O)c4cccc5ccccc45)c3)oc2c1
0% | NS(=O)(=O)c1ccc(CCNc2ncnc3c2cnn3-c2cccc(Cl)c2)cc1
-2% | CCCCN(CCCC)c1nc(-c2ccccc2)nc2ccccc12
0% | Cc1cc(C)cc(NC2=CC(c3cccc(F)c3)N(c3cc(C)cc(C)c3)C2=O)c1 (centres undefined)
-3% | CCc1ccc(NC(=O)C(=O)NCC(c2cccnc2)N2CCN(Cc3ccccc3)CC2)cc1 (centres undefined)
1% | Cc1ccc(Cn2c(C(=O)O)c(CNCc3ccccc3Cl)c3ccc(C)cc32)cc1
7% | Cc1ccccc1CNC(=O)C1CCCN(c2nnc(-n3c(C)ccc3C)s2)C1 (centres undefined)
-2% | CC1=C(c2ccc(F)cc2)S(=O)(=O)N=C1N1CCC(C(=O)NCCc2ccco2)CC1
0% | COc1ccc(CN2C(=O)C(NC(=O)c3cccc(C)c3)(C(F)(F)F)N=C2c2ccccc2)cc1 (centres undefined)
18% | CCCOc1ccc(CNC(=O)CCCn2ncn3c(cc4sc(CC)cc43)c2=O)cc1
-45% | CCC(C(=O)N1CCN(c2ccccc2F)CC1)n1nc(C)c2sc3ccccc3c2c1=O (centres undefined)
8% | CCCCNc1nc2ccccc2c2nc(-c3ccccc3)nn12
21% | CC(NC(=O)Cn1c(=O)oc2cc(S(=O)(=O)NCc3ccccc3)ccc21)c1ccccc1 (centres undefined)
-5% | COC(=O)c1cc2oc3ccccc3c2n1Cc1ccccc1Cl
-10% | Cc1c(-c2ccc(Cl)cc2)c(=O)oc2c(CN3CCOCC3)c(O)ccc12

# New compounds follow
miR-21 FLuc | smiles
? | O=C(Cn1cc(S(=O)(=O)Cc2ccccc2F)c2ccccc21)Nc1ccc(F)c(Cl)c1
-3% | Cn1c(=O)n(CCCc2ccccc2)c(=O)c2c1nc1n2CCN1c1ccc(F)cc1
7% | COc1ccc(NC(=O)c2nn(C)c3c2CS(=O)(=O)c2ccccc2-3)cc1Cl
-44% | COc1ccc(CCNC(=O)C(C)n2nc(C)c3sc4ccccc4c3c2=O)cc1OC (centres undefined)
2% | O=C(Nc1ccc(F)cc1F)c1cc2nc(-c3ccco3)cc(C(F)(F)Cl)n2n1
2% | COc1ccccc1CNC(=O)c1cc2c(-c3ccc(Cl)cc3)nn(C)c2s1
-17% | CCCC(=O)Nc1nc2c(s1)CC(C(C)(C)C)CC2 (centres undefined)
17% | COc1ccc(CNC(=O)C2=CC(c3cccc(OC)c3)=NS(=O)(=O)N2C)cc1
-9% | O=C(CSC1=Nc2ccccc2C2=NC(Cc3ccccc3)C(=O)N12)Nc1ccccc1C(F)(F)F (centres undefined)
-1% | COc1ccc2c(c1)c1c(c(=O)n(Cc3ccccc3)c(=O)n1Cc1ccccc1)n2C
-3% | COc1ccccc1OCCCCn1c(-c2ccc(Cl)cc2)nc2ccccc2c1=O
-15% | CCc1ccccc1NC(=O)N(C)CCc1c(C)nn(C)c1C
0% | COc1ccc(CN2COc3ccc4c(oc(=O)c5ccccc54)c3C2)cc1OC
-9% | COc1ccc(Cn2cc(S(=O)(=O)c3ccc(C)cc3)c(=O)c3cc(F)ccc32)cc1
5% | CCc1ccc(Cc2cnc(NC(=O)c3ccc4c(c3)CC(c3ccccc3)OC4=O)s2)cc1 (centres undefined)
-2% | Cc1cccc(C)c1OCc1nc2c3cnn(-c4cccc(F)c4)c3ncn2n1
-5% | O=[N+]([O-])c1cc(-c2nc(-c3ccncc3)no2)ccc1NCc1ccccc1
0% | CNC(=O)C1CCC(Cn2c(=O)[nH]c3ccsc3c2=O)CC1 (centres undefined)
? | COc1ccccc1Nc1c2c(nc3ccc(NC(=O)c4cccc(OC)c4OC)cc13)CCCC2
-15% | COc1ccccc1CNC(=O)c1ccc(N2CCCC2)c(NC(=O)NCc2ccc(F)cc2)c1

# Continued:
miR-21 FLuc | smiles
-1% | O=C(Nc1ncc(Cc2ccc(Cl)cc2)s1)c1ccc2c(c1)CC(c1ccccc1)OC2=O (centres undefined)
7% | COc1ccc(CNC(=O)c2ccc(NC(=O)N3CCCCc4ccccc43)cc2)c(OC)c1
-5% | Cc1cn2c(=O)cc(COc3ccccc3NC(=O)c3ccc(C(C)(C)C)cc3)nc2s1
6% | Cc1ccc(S(=O)(=O)N(CCc2ccccc2)CC(=O)Nc2ccc(Br)cc2)cc1
7% | CCOC(=O)c1sc2ncn(CC(=O)Nc3ccc(OCC)cc3)c(=O)c2c1C
3% | Cc1c(C(=O)OCc2ccccc2)[nH]c2c1C(=O)CC(c1ccc(Cl)cc1)C2 (centres undefined)
-4% | CCC(CC)c1nn2c(=O)cc(COc3ccc(NC(=O)c4cccc(C)c4)cc3)nc2s1
-1% | CCOc1ccc(NC(=O)Cn2c(=O)n(-c3ccccc3)c(=O)c3c4c(sc32)CCCC4)cc1
14% | Cc1ccc(S(=O)(=O)N2CCCc3cc(NS(=O)(=O)c4ccc(C)c(C)c4)ccc32)cc1
-4% | CCc1ccc(CNC(=O)c2ccc(Cn3c(=O)c4cccn4c4cccnc43)cc2)cc1
-3% | CCC1CN(C(=O)N2CCC(C(=O)NCc3cc(OC)ccc3OC)CC2)c2ccccc2O1 (centres undefined)
